# Assay outcomes deposited in PubChem by National Center for Advancing Translational Sciences (NCATS).
# nsP2pro primary: CHIKV nsP2 protease inhibition, primary qHTS; Q8JUX6; FRET peptide cleavage, nsP2pro, fluorescence 1 h; Potency, µM (top dose mostly 24.9 µM), without a hit: top-dose activity change, negative = inhibition, most hits filed as inhibitors; 31,000 tested, 1.1% active; AID 1964107; active means well fitted inhibition curve with a large enough effect; inconclusive means small, poorly fitted or top-dose-only effect; inactive means no such curve, though single readings can be large or run the other way; note: nearly all actives have a fitted effect of over 60% in size; a reference inhibitor and vehicle were the controls
# Target sequence (Q8JUX6 whole entry, looked up): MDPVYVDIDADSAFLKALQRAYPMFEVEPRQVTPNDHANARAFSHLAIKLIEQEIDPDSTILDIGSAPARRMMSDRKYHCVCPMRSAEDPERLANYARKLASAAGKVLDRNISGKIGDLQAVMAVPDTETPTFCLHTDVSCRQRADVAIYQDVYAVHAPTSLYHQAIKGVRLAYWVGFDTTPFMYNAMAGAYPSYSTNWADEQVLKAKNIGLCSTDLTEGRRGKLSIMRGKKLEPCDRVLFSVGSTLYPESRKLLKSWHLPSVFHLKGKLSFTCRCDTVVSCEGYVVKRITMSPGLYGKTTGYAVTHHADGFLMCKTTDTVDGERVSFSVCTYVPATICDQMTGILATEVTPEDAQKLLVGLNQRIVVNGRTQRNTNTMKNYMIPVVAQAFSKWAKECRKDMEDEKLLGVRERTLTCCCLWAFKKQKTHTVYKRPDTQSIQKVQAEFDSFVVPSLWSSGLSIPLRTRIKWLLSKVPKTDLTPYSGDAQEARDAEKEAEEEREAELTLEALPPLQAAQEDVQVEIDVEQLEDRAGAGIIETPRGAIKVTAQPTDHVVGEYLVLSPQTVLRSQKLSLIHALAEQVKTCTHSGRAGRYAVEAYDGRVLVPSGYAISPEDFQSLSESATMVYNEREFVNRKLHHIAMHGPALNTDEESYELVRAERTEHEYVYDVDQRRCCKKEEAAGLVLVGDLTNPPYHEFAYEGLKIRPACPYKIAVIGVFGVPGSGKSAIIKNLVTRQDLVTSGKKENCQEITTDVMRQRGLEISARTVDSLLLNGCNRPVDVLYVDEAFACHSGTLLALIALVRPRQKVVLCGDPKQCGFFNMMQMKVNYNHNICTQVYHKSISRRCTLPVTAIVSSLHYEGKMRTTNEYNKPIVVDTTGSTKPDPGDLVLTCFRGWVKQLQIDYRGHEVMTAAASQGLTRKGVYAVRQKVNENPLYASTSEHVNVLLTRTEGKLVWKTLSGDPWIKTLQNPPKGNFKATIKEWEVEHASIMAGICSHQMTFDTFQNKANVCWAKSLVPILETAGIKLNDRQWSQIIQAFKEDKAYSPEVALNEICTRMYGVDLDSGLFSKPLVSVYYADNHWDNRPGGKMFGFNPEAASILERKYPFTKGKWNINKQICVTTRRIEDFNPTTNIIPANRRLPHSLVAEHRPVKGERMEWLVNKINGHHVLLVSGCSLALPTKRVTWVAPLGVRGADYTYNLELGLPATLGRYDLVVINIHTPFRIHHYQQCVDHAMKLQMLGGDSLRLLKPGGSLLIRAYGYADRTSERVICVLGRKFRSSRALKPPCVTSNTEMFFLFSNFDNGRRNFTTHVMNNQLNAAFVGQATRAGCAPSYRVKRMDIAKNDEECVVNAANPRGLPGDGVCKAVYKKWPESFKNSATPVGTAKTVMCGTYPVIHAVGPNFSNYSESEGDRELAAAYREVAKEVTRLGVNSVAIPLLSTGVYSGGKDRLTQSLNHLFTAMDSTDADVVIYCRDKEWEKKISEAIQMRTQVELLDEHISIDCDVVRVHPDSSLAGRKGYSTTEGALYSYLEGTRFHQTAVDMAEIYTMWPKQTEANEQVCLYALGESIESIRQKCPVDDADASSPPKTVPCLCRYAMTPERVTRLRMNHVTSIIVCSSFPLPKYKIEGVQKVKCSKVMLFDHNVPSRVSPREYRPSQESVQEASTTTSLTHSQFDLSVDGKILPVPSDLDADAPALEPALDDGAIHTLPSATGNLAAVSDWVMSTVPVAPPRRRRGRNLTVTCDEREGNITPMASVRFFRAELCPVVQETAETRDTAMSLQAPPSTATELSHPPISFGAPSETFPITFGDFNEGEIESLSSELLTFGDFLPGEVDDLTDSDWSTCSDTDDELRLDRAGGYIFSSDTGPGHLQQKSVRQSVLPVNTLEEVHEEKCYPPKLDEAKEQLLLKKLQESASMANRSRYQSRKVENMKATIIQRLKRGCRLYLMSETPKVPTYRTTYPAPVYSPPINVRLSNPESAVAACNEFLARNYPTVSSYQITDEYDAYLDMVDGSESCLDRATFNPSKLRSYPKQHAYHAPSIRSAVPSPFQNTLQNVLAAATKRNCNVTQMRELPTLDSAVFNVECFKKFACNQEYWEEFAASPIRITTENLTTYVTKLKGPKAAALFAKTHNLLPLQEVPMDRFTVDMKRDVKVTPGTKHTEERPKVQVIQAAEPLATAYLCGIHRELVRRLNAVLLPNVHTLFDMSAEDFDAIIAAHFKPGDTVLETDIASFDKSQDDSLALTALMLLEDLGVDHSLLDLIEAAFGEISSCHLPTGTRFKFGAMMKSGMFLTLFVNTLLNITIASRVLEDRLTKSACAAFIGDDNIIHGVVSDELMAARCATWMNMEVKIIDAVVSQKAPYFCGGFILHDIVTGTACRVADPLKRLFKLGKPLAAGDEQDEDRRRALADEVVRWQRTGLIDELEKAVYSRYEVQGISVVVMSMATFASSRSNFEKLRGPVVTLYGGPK
# The depositor's hits bear a star; i = inactive; ? = inconclusive; & = joins results of further samples; [ ] = dose if it differs, or a comment. % is set by controls: 0 for no effect and ±100 for the full control effect; potency is the fitted concentration of half-maximal effect. An excerpt. The share of hits here may be higher or lower than overall.
SMILES,nsP2pro primary
COc1ccc(C(=O)NNc2ncnc3c2cnn3-c2ccc(C)c(Cl)c2)cc1,-21%
Cc1ccc(-c2ccc(=O)n(CC(=O)N(C)[C@@H](C)c3ccccc3)n2)cc1,i
CCOC(=O)c1ccc(O)c2ncc(NCC3CCCN(CCc4ccccc4)C3)cc12 (configuration not stated),i
COc1ncccc1-c1csc(CN2CCCC(C)(NC(C)=O)C2)c1 (configuration not stated),-9%[39.2 µM]
CC(C)C12CN3CC(C(C)C)(CN(C1)C3c1ccc(OCc3ccccc3)cc1)C2=O (configuration not stated),-15%
CN(CCC1CCOCC1)Cc1ccccc1OCC(O)CN1CCSCC1 (configuration not stated),5%
CCN(CC)CCn1c(-c2ccccc2)nc2c(NCCO)nc(C)nc21,-5%
C/C1=C\CCC(C)CCO[C@@H]2O[C@H](CO[C@@H]3OC[C@H](O)[C@H](O)[C@H]3OC1=O)[C@@H](O)[C@H](O)[C@H]2O (some centres not stated),47%[10 µM]
O=C1N(Cc2cccc(F)c2F)CCCC1(O)CN1CCNCC1 (configuration not stated),-20%
O=C(CCCn1ccc2cc(S(=O)(=O)N3CCCC3)ccc21)NCc1ccc(Cl)cc1,-13%
O=C(CCc1conc1-c1ccccc1F)NCc1ccc(Cl)cc1,-15%
Cc1nnc2n1C(C)CN(C(=O)Cn1nnc(-c3ccc(F)cc3)n1)C2 (configuration not stated),-5%
CC(C)(C)[C@H](NC(=O)c1ccc(N)c(Cl)c1)C(=O)N1CCC[C@H]1C(=O)N[C@H](C#N)Cc1nn[nH]n1,-3%
Cc1cccc(NC(=O)CSc2nnc(CNC(=O)c3c(F)cccc3Cl)o2)c1C,-18%
COc1cccc(NC(=O)C2CCCN(S(=O)(=O)c3ccc4[nH]c(=O)ccc4c3)C2)c1 (configuration not stated),-4%
COCC1CCN(C(=O)[C@@H]2CN(c3cnccn3)C[C@H]2COC)CC1,-1%
Cc1cc(C)c(S(=O)(=O)NCCn2c(C)cnc2C2CCC2)cc1C,-2%
NC(=O)C1CCN(c2cc(-c3ccc4c(c3)OCCCO4)ncn2)CC1,i
Cc1ccc(S(=O)(=O)Nc2cnccc2C(=O)Nc2ccccc2)cc1,i
COc1ccc(NC(=O)Cn2ncc3c4ccccc4n(Cc4ccccc4)c3c2=O)cc1OC,-13%
C[C@@H](NC(=O)C1=C[C@@H](NC(=O)Nc2ccccc2Br)[C@@H](O)[C@H](O)C1)C(N)=O,-9%
N#Cc1ccc(O[C@@H]2CCOC[C@H]2NC(=O)CN2CCOC2=O)cc1,-4%
Cc1nn(CC(=O)N2CCCCCC2)c(=O)c2nc(C(C)C)sc12,5%
COC(=O)c1cccnc1-n1c(=O)c2cccnc2n(CC(=O)Nc2ccc(C)cc2C)c1=O,-2%
CCCOc1ccc(C(=O)Nc2cc(-c3nc4ccccc4[nH]3)ccc2C)cc1,-11%
SMILES,nsP2pro primary
COC(=O)c1ccccc1NC(=O)c1ccc(COc2ccccc2Cl)o1,-25%
Cc1cn([C@H]2C[C@H](N[S+](=O)([O-])Cc3ccccc3)[C@@H](CO)O2)c(=O)[nH]c1=O,-3%
COc1cc2c(C(=O)N3CCN(c4cccc(Cl)c4)CC3)cn(C)c(=O)c2cc1OC,-10%
CCOc1cccc(C2c3[nH]c4ccccc4c3CCN2C(=O)CSc2ccccc2)c1 (configuration not stated),-16%
Cc1ccc2[nH]c(=O)c(CN(C(=O)c3cccc(Cl)c3)C(C)(C)C)cc2c1,-18%
Cc1ccc(C)c(OC(=O)CSc2nnc(CNC(=O)c3ccccc3)o2)c1,-15%
CN(C)C(=O)c1ccc(-c2cc[nH]c(=O)c2N)cc1,-20%
O=C(NC1CC1)c1nc2sccn2c1-c1ccc(C(F)(F)F)cc1,-3%
Cc1ccc(CNc2ccc(N3CCN(C(=O)OC(C)(C)C)CC3=O)cc2)cc1,-2%
CC(C)(CC(=O)OCC(=O)Nc1ccc(F)c(Cl)c1)CC1=NS(=O)(=O)c2ccccc2N1,3%
O=C(Nc1c(C(=O)N2CCN(c3ccccc3)CC2)oc2ccccc12)c1ccco1,-29%
COc1ccc(CC(=O)NCc2ccc3c(c2)CCN3C(=O)c2ccc(Cl)cc2)cc1,-8%
COc1ccc(OC)c(C(=O)CN2C(=O)N(c3cc(C)cc(C)c3)S(=O)(=O)c3ccccc32)c1,-14%
Cc1cc(C)c(/C=C2\C(=O)Nc3ccc(Cl)cc32)[nH]1,1%
CCC(=O)N1c2ccc(S(=O)(=O)CCC(=O)Nc3ccc(Br)c(C)c3)cc2CC1C (configuration not stated),-19%
CCOc1ccc(CCNC(=O)c2cc3sccc3n2CCN2CCN(C)CC2)cc1OCC,-3%
Cc1cc2c(s1)c1cnn(Cc3ccc(F)cc3F)c(=O)c1n2C,-7%
Cc1cccc2c1-c1sc(C(=O)N3CCN(c4ccccc4)CC3)cc1CO2,-17%
CCOC(=O)CCN(c1ccccc1)S(=O)(=O)c1cc(-c2cc(C)no2)ccc1C,-12%
Cc1cc(O)ccc1C(C)(C)C,1%
CN(Cc1ccccc1)C(=O)C(=O)Nc1ccc2nc3n(c(=O)c2c1)CCCCC3,-2%
COc1ccc(NC(=O)CSC2=Nc3ccccc3C3=NC(Cc4ccccc4)C(=O)N23)cc1Cl (configuration not stated),-29%
O=C(NCc1cccnc1)C1CCN(C2CCN(Cc3ccc4c(c3)CCO4)CC2)CC1,i
Cc1ccc(C(=O)N[C@H]2CO[C@H]3[C@@H]2OC[C@@H]3Nc2nccc(-c3cccs3)n2)cc1,28%[39.2 µM]
O=C([C@@H]1Cc2nc[nH]c2CN1Cc1ccc(C(F)(F)F)cc1)N1CCOCC1,i
SMILES,nsP2pro primary
O=C(NCc1ccccc1Cl)c1cnc(N2CCOCC2)c2ccccc12,-20%
O=C(O)Cc1ccc(O)c(O)c1,?
C/C=C1\[C@H]2C=C(C)C[C@]1(N)c1ccc(=O)[nH]c1C2,14%
Cc1ccc(OCCn2c(CCNC(=O)C3CCCCCC3)nc3ccccc32)cc1,-8%
COc1cnc(-n2cnc(C)n2)c2[nH]cc(C(=O)C(=O)N3CCN(C(=O)c4ccccc4)CC3)c12,-13%
COCCNC(=O)[C@@H](C)C1CCc2c(C)cc(OC)c(C)c2[C@@H]1O (some centres not stated),i
NCCC(=O)Nc1cccc(-c2nn3c(=O)cc(N4CCNCC4)nc3s2)c1,i
CC(C)(C)C1CCN(C(=O)n2ncc(C(O)(c3ccccc3)c3ccccc3)n2)CC1,?
COc1cc(CO)ccc1O[C@@H]1O[C@H](CO)[C@@H](O)[C@H](O)[C@H]1O,-1%
O=C(Nc1ccc(=O)n2c1[C@@H]1C[C@@H](CN(S(=O)(=O)c3ccccc3)C1)C2)c1ccccc1,-10%
C=C1CCC2C(C(C)(C)O)CCC2(C)CC(O)C(=C)CCC1O (configuration not stated),4%
CCOC(=O)c1cccc(NC(=O)c2oc3c(c2C)-c2[nH]ncc2CC3)c1,-18%
Cc1cc(-c2nnc3n2CCCCCCC3)c(C)n1-c1ccccc1,-11%
O=C(CSc1nncn2c1cc1sccc12)Nc1ccccc1C(F)(F)F,-11%
[2H]C([2H])([2H])C(CCC[C@@H](C)[C@H]1CC[C@H]2/C(=C/C=C3\C[C@@H](O)C[C@H](O)C3=C)CCC[C@]12C)C([2H])([2H])[2H],-10%
O=C(Cn1nc(-c2cccnc2)ccc1=O)NCCc1ccccc1,-1%
O=C(Nc1cccc(F)c1)c1cc(-c2ccc[nH]2)n[nH]1,88%[activator]
N[C@@H](COP(=O)(O)O)C(=O)O,10%
CCOc1ccccc1NC(=O)c1c(NCc2ccc(OC)c(OC)c2OC)sc2c1CCC(C)C2 (configuration not stated),2%
Cc1ccc(C(=O)Nc2ccccc2C(=O)Nc2nc(-c3ccccc3)cs2)cc1,-2%
CCC(CC)C(=O)N1c2ccccc2C(C)(c2ccccc2)CC1(C)C (configuration not stated),-24%
Cc1cc2cc3c(C)cc(=O)oc3c(C)c2o1,4%
O=C(CN1N=C(c2ccc(Cl)cc2)CCC1=O)NCCc1ccc(Cl)cc1,-16%
COC(=O)C12C(=O)C(C)(O)C(=O)C1(C)C(C)=CC1C34CCC(OC3=O)C(C)(CO)C4CCC12C (configuration not stated),-8%[10 µM]
Cc1nn(CCCC(=O)NCc2cccc(F)c2)c(=O)c2nn(-c3ccccc3)c(C)c12,-10%
SMILES,nsP2pro primary
CCCc1nnc(NC(=O)C2CC(=O)N(c3n[nH]c4cc(Br)ccc34)C2)s1 (configuration not stated),i
C=CCN1CC[C@]23c4c5ccc(O)c4O[C@H]2C(=O)CC[C@@]3(O)[C@H]1C5,7%
Cc1ccc(C)c(OCC(=O)N[C@H]2CCOC[C@H]2C2CCOCC2)c1C,4%
O=C(Nc1cc(-c2ccncc2)nn1-c1ccccc1)c1ccc(Cl)cc1,i
CCCC(=O)Nc1ccccc1C(=O)OCc1cc(=O)n2nc(C(C)C)sc2n1,-18%
CC1(C)CC2C(O)C3=C(CC(C)(O)C2C1)C(=O)OC3 (configuration not stated),-17%
O=C(O)c1ccc(CSc2nnc(-c3ccc([S+](=O)([O-])N4CCCC4)cc3)n2-c2ccccc2)cc1,-3%
COc1ccccc1NC(=O)c1c(NCc2ccc(OC)c(OC)c2OC)sc2c1CCC2,-23%
CCOCCc1nn2c(=O)cc(COC(=O)C3CCCCC3)nc2s1,-21%
Cc1cc(-c2cc(OC(=O)c3ccccc3)ccc2Cl)cc2nnc(Nc3ccc(OCCN4CCCC4)cc3)nc12,48%[activator][10 µM]
C=C1CCC2C(C)(C(=O)O)CC(O)CC2(C)C1CC/C(C)=C/C(=O)O (configuration not stated),-8%
Cc1noc(C)c1[S+](=O)([O-])N1CCCC1C(=O)N1CCC(c2nc3ccncc3[nH]2)CC1 (configuration not stated),i
COc1ccc(-c2cncc(NC(=O)c3cccs3)c2)cc1OC,i
CN(C)C[C@@H]1CN(S(C)(=O)=O)C[C@H]1NC(=O)c1ccc(Cl)s1,-24%
Cc1csc2nc(COc3ccccc3NC(=O)c3ccco3)cc(=O)n12,-21%
CC(C)(C)C(=O)Oc1ccc2c(c1)nc(NC(=O)c1cccc([N+](=O)[O-])c1)n2CCCO,-1%
O=C(O)[C@H]1C[C@@H](C(=O)NCc2ccncc2)CN(C2CCOCC2)C1,1%
CC(C)(Nc1nc(-c2ccccc2C(F)(F)F)nc2ccccc12)c1ccc(-c2cccc(C(F)(F)F)c2)cc1,-1%
C[Se]CC[C@H](N)C(=O)O,?
CC(C)CNC(=O)N1[C@H](c2cccs2)[C@@H](C)C(=O)[C@@H](C)[C@@H]1c1cccs1,-24%
Cc1ccc(C(=O)Nc2ccc(S(=O)(=O)Nc3nccs3)cc2)cc1C,i
COc1ccc2c(c1)CC[C@@H](CN(C)CC(=O)O)[C@H]2c1ccccc1,-9%
CCc1nn(CC(=O)NCCN(CC)CC)c(=O)c2cc3occc3n12,-4%
COc1ccc(Cn2ccc3nc(C)c(C(=O)Nc4cccc(SC)c4)cc3c2=O)cc1,-17%
N#Cc1ccc2c(c1)CCN(CCC1CCC(NC(=O)c3ccnc4ccccc34)CC1)C2 (configuration not stated),-8%

# 2 entries from above, with each value named.
> Cc1cc(C)c(/C=C2\C(=O)Nc3ccc(Cl)cc32)[nH]1
  nsP2pro primary: 1%

> CCC(=O)N1c2ccc(S(=O)(=O)CCC(=O)Nc3ccc(Br)c(C)c3)cc2CC1C (configuration not stated)
  nsP2pro primary: -19%

# (next part)
SMILES,nsP2pro primary
CC1CCC2(OC1)OC1CC3C4CCC5C[C@@H](O[C@@H]6O[C@H](CO[C@@H]7OC[C@@H](O)[C@H](O)[C@H]7O)[C@H](O)[C@H](O)[C@H]6O)CC[C@]5(C)C4CC[C@]3(C)C1C2C (some centres not stated),?
COc1ccc(CNC(=O)N2CCCCC2c2nc(-c3cnccn3)n[nH]2)cc1 (configuration not stated),?
CCC(=O)NC(c1cccs1)c1cc([N+](=O)[O-])c2cccnc2c1OC (configuration not stated),-3%&-3%
NC(=O)CCC(N)C(=O)O (configuration not stated),-20%[2.68 µM]
CC(=O)c1ccc(N2CCN(C3C(=O)c4ccccc4N3C(C)=O)CC2)cc1 (configuration not stated),-26%
Cn1cc(-c2cnc(Nc3cccnc3)c3c2CCO3)cn1,8.9µM*
COc1cc2nc(=NC(=O)c3cccnc3)n3c(c2cc1OC)NCC3,?
FC(F)(F)c1ccc(N2CCN(C(=S)Nc3ccccn3)CC2)cc1,-14%

# Structural class: the compounds so far containing fluorine
SMILES,nsP2pro primary
O=C1N(Cc2cccc(F)c2F)CCCC1(O)CN1CCNCC1 (configuration not stated),-20%
O=C(CCc1conc1-c1ccccc1F)NCc1ccc(Cl)cc1,-15%
Cc1nnc2n1C(C)CN(C(=O)Cn1nnc(-c3ccc(F)cc3)n1)C2 (configuration not stated),-5%
Cc1cccc(NC(=O)CSc2nnc(CNC(=O)c3c(F)cccc3Cl)o2)c1C,-18%
O=C(NC1CC1)c1nc2sccn2c1-c1ccc(C(F)(F)F)cc1,-3%
CC(C)(CC(=O)OCC(=O)Nc1ccc(F)c(Cl)c1)CC1=NS(=O)(=O)c2ccccc2N1,3%
Cc1cc2c(s1)c1cnn(Cc3ccc(F)cc3F)c(=O)c1n2C,-7%
O=C([C@@H]1Cc2nc[nH]c2CN1Cc1ccc(C(F)(F)F)cc1)N1CCOCC1,i
O=C(CSc1nncn2c1cc1sccc12)Nc1ccccc1C(F)(F)F,-11%
O=C(Nc1cccc(F)c1)c1cc(-c2ccc[nH]2)n[nH]1,88%[activator]
Cc1nn(CCCC(=O)NCc2cccc(F)c2)c(=O)c2nn(-c3ccccc3)c(C)c12,-10%
CC(C)(Nc1nc(-c2ccccc2C(F)(F)F)nc2ccccc12)c1ccc(-c2cccc(C(F)(F)F)c2)cc1,-1%
FC(F)(F)c1ccc(N2CCN(C(=S)Nc3ccccn3)CC2)cc1,-14%
